Bioassay records from PubChem BioAssay.
RVFV N-RNA FP: blocks Rift Valley Fever Virus nucleoprotein binding to RNA. AID 651828. % bound, % (concentration not given with the values). P21700. RVFV N-RNA binding, fluorescence polarization; active compounds read low. 0.1% of 20,000 active;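 active means between 0 and 58% in either replicate with normal brightness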;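 further: 100 nL library stock added to about 12 µL; 100% = protein and probe without compound and 0% = probe alone; numbers are from one replicate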
Target sequence (P21700 whole entry, looked up): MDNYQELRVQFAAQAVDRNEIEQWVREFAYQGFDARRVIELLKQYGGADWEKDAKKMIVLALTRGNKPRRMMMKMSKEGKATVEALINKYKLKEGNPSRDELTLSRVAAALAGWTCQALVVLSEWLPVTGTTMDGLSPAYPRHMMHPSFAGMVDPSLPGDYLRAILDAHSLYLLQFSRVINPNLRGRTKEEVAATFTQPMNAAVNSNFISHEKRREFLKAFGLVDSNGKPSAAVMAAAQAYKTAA
* hit, by the source's call; & = joins results of further samples. Not all compounds are listed; count on the stated rates, not on these rows.

SMILES	RVFV N-RNA FP
O=C(Nc1nnc(C2=COCCO2)o1)c1cccc2ccccc12	98
c1ccc(NCc2cccs2)nc1	89
O=C(/C=C/c1ccco1)Nc1ccc(Br)cc1	76
Cc1cc(Br)c2[nH]cc(CCN)c2c1	94
O=C(NCC1CCCO1)c1ccccn1 (configuration not stated)	100
OCCOc1nc(N2CCOCC2)nc(N2CCOCC2)n1	96
N#Cc1ccccc1NC(=O)c1coc2ccccc2c1=O	93
O=c1cc(N2CCNCC2)oc2c(-c3ccccc3)cccc12	103
COc1ccccc1C(=O)NCCCn1cc(Br)c(C)n1	94
COCC(C)NC(=O)NC1CC(=O)N(c2ccc(F)cc2)C1 (configuration not stated)	96
O=C1NCCCCC1NS(=O)(=O)c1ccc(-c2ccccn2)s1 (configuration not stated)	93
CC(C(=O)N1CCOCC1)C1SC(=O)NC1=O (configuration not stated)	91
CN(Cc1ccccc1)S(=O)(=O)c1cc2c3c(c1)CCC(=O)N3CCC2	92
C=CCn1c(=NC(C)=O)sc2cc(F)ccc21	95
Cc1cc(N2CCCC2=O)cc(C)c1CN1C(=O)c2ccccc2C1=O	102
COC(=O)c1ccc(S(=O)(=O)NCc2ccc(S(N)(=O)=O)cc2)n1C	94
CCOC(=O)/C(C#N)=C/NC1CCCCNC1=O (configuration not stated)	112
COc1cc(Cl)ccc1N=Cc1c(O)c2c(=O)n(C)c(=O)n(C)c2n(C)c1=O	89
C[C@]12CCC(=O)C[C@@H]1CC[C@@H]1[C@@H]2CC[C@@]2(C)[C@H]1CC[C@]2(C)O	100
CSc1nc(/N=C/N(C)C)n(-c2c(Cl)cc(Cl)cc2Cl)n1	93
COc1ccc(C2CC(C3C(=O)c4ccccc4C3=O)=NN2)cc1 (configuration not stated)	94
Fc1cccc(-c2nc3cc(N4CCOCC4)c(N4CCOCC4)cc3[nH]2)c1	104
Cc1ccc(C)c(CNc2ccc3[nH]ncc3c2)c1	89
CCC(=O)Oc1ccc2c(c1)CCC1C2CC[C@@]2(C)C1CC[C@@H]2OC(=O)CC (some centres not stated)	104
CC(C)Oc1ccc2c(=O)c(-c3ccccc3)coc2c1	93
O=C(CSc1nc(C(F)(F)F)cc(=O)[nH]1)N1CCN(c2ccccc2)CC1	94
Cc1c(S(=O)(=O)NC2CCCCNC2=O)sc2ccc(Cl)cc12 (configuration not stated)	88
CCOC(=O)C(C(=O)Nc1ccccc1)C1CCCCC1 (configuration not stated)	105
CCN(CC)c1ccc(NC(=O)COc2ccc(C)cc2C)c(C)c1	100
O=c1[nH]cc(F)c(=O)[nH]1	95&89&96
Cn1c(=O)[nH]c(=O)c2[nH]c(Cc3ccccc3)nc21	96
CC1(C)C(=O)C2(C(=O)O)CCC1C2 (configuration not stated)	93
COC(=O)c1cccc(S(=O)(=O)N2CCCCC2)c1	92
Cc1cc(-c2nc(-c3ccc(C(F)(F)F)cc3)no2)no1	99
COc1ccc(CNC(=O)c2ccc(N(C)S(C)(=O)=O)cc2)cc1	98
COC(=O)c1cnc(N2CCCN(C(=O)NC3CCCCC3)CC2)nc1C(F)(F)F	97
COc1cccc2c1C(=O)c1c(O)c3c(c(O)c1C2=O)C[C@@](O)(C(=O)CO)C[C@@H]3O[C@H]1C[C@H](N)[C@H](O)[C@H](C)O1	-22
Cc1c(C(=O)OC(C)C)c2cc(O)ccc2n1-c1ccccc1	103
COc1cc(OC)c(C(=S)N2CCN(CCO)CC2)cc1OC	101
C=CCNC(=S)Nc1ccn(Cc2ccccc2C)n1	96
CC(C)S(=O)(=O)c1csc(C(=O)OCC(=O)C(C)(C)C)c1N	106
Cc1cccc(C(=O)N2CCN(c3ccc(N4CCCCCC4)nn3)CC2)c1	96
CCOC(=O)c1nc(NNC(C)=O)sc1C	100
OCCNC(=S)Nc1ccccc1	97
CC(C)N1C(=O)S/C(=C/c2cccnc2)C1=O	103
CSc1nnc(CSc2ncccn2)n1C	90
CCN1CCC(N(C)CCc2ccccc2)CC1	110
C=CCN1C(=O)/C(=C/c2ccco2)S/C1=N/S(=O)(=O)c1ccccc1	97
CCc1ccc2nc(Cl)sc2c1	93
COc1ccc(CC2=C(O)c3ccccc3C(=O)C2=O)cc1	94

Next results.
SMILES	RVFV N-RNA FP
CC[C@H](CO)Nc1nc(NCc2ccccc2O)c2ncn(C(C)C)c2n1	99
Cn1c(CNC(=O)c2ccco2)nnc1SCC(=O)c1ccccc1	96
Cc1c[nH]c(=S)c(C#N)c1	83
O=C(Cc1cc(=O)[nH]c(=O)[nH]1)N1CCN(c2cccc(Cl)c2)CC1	91
O=S(=O)(Cc1nc(-c2ccc(Cl)cc2)cs1)c1ccccn1	97
CCC(CC)NC(=O)CSc1ccccc1	106
COCc1cc(=O)[nH]c(-c2cccc(C)c2)n1	92
OCCNc1nc(NCCO)c2cnn(-c3ccccc3)c2n1	111
CCCN1CCc2cc(O)cc3c2[C@H]1Cc1ccc(O)c(O)c1-3	93
COc1cccc(Oc2nc3ncn(Cc4ccccc4)c3c(=O)n2C)c1	103
Cc1nn(-c2ccccc2)nc1CNC(=O)c1ncoc1-c1ccccc1	97
Cc1onc(-c2c(Cl)cccc2Cl)c1C(=O)O/N=C(\C#N)c1ccccc1	96
O=C(Nc1ccc2c(c1)OCO2)C(O)(c1ccccc1)c1ccccc1	98
O=C(Cc1csc(NC(=O)c2cccs2)n1)NO	98
O=C(CCN1C(=O)/C(=C\C=C\c2ccco2)SC1=S)Nc1ccc(C(=O)O)c(O)c1	93
CCOC(=O)/C(=C(/C)Nc1ccc(F)cc1)C1CC(=O)N(c2cc(C)on2)C1=O (configuration not stated)	108
O=S(=O)(CC(c1ccccc1)N1CCOCC1)c1ccc(Cl)cc1 (configuration not stated)	104
c1cnc(N2CCN(Cc3ccc4c(c3)OCO4)CC2)nc1	98&96&109
COC(CNC(=S)Nc1cccc(C(F)(F)F)c1)OC	100
O=P(c1ccccc1)(c1ccccc1)C(O)c1cccs1 (configuration not stated)	98

An excerpt of these results, as a markdown table.
| SMILES | RVFV N-RNA FP |
| --- | --- |
| COc1ccc(CC2=C(O)c3ccccc3C(=O)C2=O)cc1 | 94 |
| CC[C@H](CO)Nc1nc(NCc2ccccc2O)c2ncn(C(C)C)c2n1 | 99 |
| Cn1c(CNC(=O)c2ccco2)nnc1SCC(=O)c1ccccc1 | 96 |
| Cc1c[nH]c(=S)c(C#N)c1 | 83 |
| O=C(Cc1cc(=O)[nH]c(=O)[nH]1)N1CCN(c2cccc(Cl)c2)CC1 | 91 |
| O=S(=O)(Cc1nc(-c2ccc(Cl)cc2)cs1)c1ccccn1 | 97 |
| CCC(CC)NC(=O)CSc1ccccc1 | 106 |
| COCc1cc(=O)[nH]c(-c2cccc(C)c2)n1 | 92 |
| OCCNc1nc(NCCO)c2cnn(-c3ccccc3)c2n1 | 111 |
| CCCN1CCc2cc(O)cc3c2[C@H]1Cc1ccc(O)c(O)c1-3 | 93 |
| COc1cccc(Oc2nc3ncn(Cc4ccccc4)c3c(=O)n2C)c1 | 103 |
| Cc1nn(-c2ccccc2)nc1CNC(=O)c1ncoc1-c1ccccc1 | 97 |
| Cc1onc(-c2c(Cl)cccc2Cl)c1C(=O)O/N=C(\C#N)c1ccccc1 | 96 |
| O=C(Nc1ccc2c(c1)OCO2)C(O)(c1ccccc1)c1ccccc1 | 98 |
| O=C(Cc1csc(NC(=O)c2cccs2)n1)NO | 98 |
| O=C(CCN1C(=O)/C(=C\C=C\c2ccco2)SC1=S)Nc1ccc(C(=O)O)c(O)c1 | 93 |
| CCOC(=O)/C(=C(/C)Nc1ccc(F)cc1)C1CC(=O)N(c2cc(C)on2)C1=O (configuration not stated) | 108 |
| O=S(=O)(CC(c1ccccc1)N1CCOCC1)c1ccc(Cl)cc1 (configuration not stated) | 104 |

Next records:
SMILES	RVFV N-RNA FP
CCCCc1nc(Cl)c(CO)n1Cc1ccc(-c2ccccc2-c2nnn[nH]2)cc1	103&97
Cc1ccc(-c2nc(=S)c3c(n2CCCO)CCCC3)cc1	93
CC(C)CN(CC(C)C)S(=O)(=O)c1ccc(C(=O)Nc2nnc(-c3ccccn3)o2)cc1	96
OCCOCCN1CCN(C2=Nc3ccccc3Sc3ccccc32)CC1	93&88
CN(C)c1ccc(/C=C2\SC(=Nc3ccccc3)N(CCO)C2=O)cc1	93
COC(=O)C(C)Sc1nnc2c3ccccc3n(Cc3ccccc3)c2n1 (configuration not stated)	103
C=CCSC1=C(C#N)C2(CCCC2)C(C#N)C(=O)N1 (configuration not stated)	97
COC(Cn1c(SCC(=O)c2ccccc2)nnc1-c1ccccc1)OC	101
CC(C)CN1C(=O)c2cccnc2C1=O	100
CC(C)(C)NC(=O)CCC1COc2ccccc2O1 (configuration not stated)	92
NC(=O)c1oc2ccccc2c1NC(=O)C12CC3CC(CC(C3)C1)C2	91
COc1cccc(/C=N\NC(=O)c2n[nH]c3c2CCC3)c1	102
Cc1ccc(-c2nc3scc(CCNS(=O)(=O)N(C)C)n3n2)cc1	98
CS(=O)(=O)NCc1ccccc1Cl	105
CC(C)(C)NC(=O)c1ccccc1NC(=O)Nc1ccccc1	99
Cc1nn(-c2ccccc2)c(N)c1N=Nc1ccc(S(=O)(=O)N2CCOCC2)cc1	94
CC(NS(C)(=O)=O)C(c1cccs1)N1CCN(Cc2ccccc2)CC1 (configuration not stated)	99
CC(C)(C)c1cc2nc(C(F)(F)F)cc(N3CCN(c4ncc(C(F)(F)F)cc4Cl)CC3)n2n1	102
COc1ccc(NC(=O)c2oc3ccccc3c2NC(=O)C2CCCCC2)cc1OC	101
CCCCSc1nnc(Cn2c(=O)sc3ccccc32)n1C	97
Cn1c2ccccc2c2nnc(SCCC(=O)O)nc21	94
Cc1ncc([N+](=O)[O-])n1CC(O)CCl (configuration not stated)	98
CN(C)c1cccc(N=Cc2c(O)n(-c3ccc(Cl)cc3)c(=O)[nH]c2=O)c1	89
COc1ccc(NC(=O)Nc2cccc(OC)c2)cc1	86
NC(=O)Cn1nc(-c2ccc(Cl)cc2)ccc1=O	102
COC(=O)C(NS(=O)(=O)c1ccc(F)cc1)c1ccccc1 (configuration not stated)	94
O=C(O)c1ccc(-c2ccc(C(=O)O)s2)s1	92
CC(C)(C)CC(=O)Nc1ccc2c(c1)OCCO2	93
CCC(=O)Nc1sccc1C(N)=O	96
CC(=O)C1(O)CCC2C3CC(C)C4=CC(=O)C=CC4(C)C3(F)C(O)CC21C (configuration not stated)	98
O=C(CSc1n[nH]c(=O)n1Cc1ccco1)Nc1ccccc1Cl	100
CCOc1cc(C)c(Cl)cc1S(=O)(=O)N1CCN(CC)CC1	107
N#Cc1c(N)nc2c(c1-c1cccnc1)CCCCCC2	97
COc1cccc(-c2[nH]nc(SC)c2C#N)c1	99
COc1cccc(-c2cc(=O)c3ccccc3o2)c1N	100
CCCCOc1cccc(-c2nnc(NC(=O)OC)s2)c1	98
O=C1NC(=O)c2cc(Nc3ccc(F)cc3)c(Nc3ccc(F)cc3)cc21	92
O=C1N=C(N2CCOCC2)SC1=C1CCCCC1	93
O=S(=O)(c1ccc(Cl)cc1)N1CN(C2CCCC2)c2nc3ccccc3nc21	90
CN1CCN(/N=C/C2=C(O)CC(c3ccccc3)CC2=O)CC1 (configuration not stated)	100

Taken from above:
N#Cc1c(N)nc2c(c1-c1cccnc1)CCCCCC2 @ RVFV N-RNA FP: 97
CCCCOc1cccc(-c2nnc(NC(=O)OC)s2)c1 @ RVFV N-RNA FP: 98

Further compounds follow:
SMILES	RVFV N-RNA FP
CCOC(=O)/C(C#N)=N\Nc1cc(C(N)=O)cc(C(N)=O)c1	93
COc1cc(C(=O)Nc2cc(C)c3c(=O)oc4ccccc4c3n2)cc(OC)c1OC	107
COc1cccc(OC)c1C(=O)NN1CCCCC1	102
CC1CCN(Cc2c(O)ccc3c2O/C(=C\c2ccccc2)C3=O)CC1	56*
Cc1cc(C(=O)N2CCN(Cc3ccc4c(c3)OCO4)CC2)cs1	107
CC1(C)OC(=O)C(=Cc2ccc(C#N)cc2)C(=O)O1	98
CN1CCCN(Cc2ccccc2)CC1	86
N#Cc1c(-c2ccccc2)c(-c2ccccc2)n[nH]c1=O	97
CCOc1cc(C(OC(C)=O)OC(C)=O)cc(Cl)c1OC(C)=O	97
O=C1N/C(=N/N=C/c2ccco2)SC1c1ccccc1 (configuration not stated)	96
Cc1oc(-c2ccc(Cl)cc2)cc1C(=O)N1CCc2[nH]c3ccc(F)cc3c2C1	95
O=C(CSc1ccc2nnc(-c3ccncc3)n2n1)Nc1ccccc1	90
COc1c(C)c2c(c(O)c1C/C=C(\C)CCC(=O)O)C(=O)OC2	103
N#C/C(=C/c1ccco1)c1ccc2ccccc2c1	92
O/N=C/c1ccoc1	89
Cc1ccc(O)c(C=Nc2cc(C)on2)c1	99
CCCCn1c2ccccc2c2nnc(SCc3ccccc3)nc21	102
CC1Cn2c(CCc3ccccc3)nnc2S1 (configuration not stated)	96
Cc1ccc(S(=O)(=O)/C=C/C#N)cc1	103&94
CN(C)C(=O)CN(c1ccc(Cl)cc1Cl)S(C)(=O)=O	96
COc1ccc(C)c2sc(=NC(=O)C3CC3)n(C)c12	101
C[C@@H]1O[C@@H](OC[C@H]2O[C@@H](Oc3c(-c4ccc(O)c(O)c4)oc4cc(O)cc(O)c4c3=O)[C@H](O)[C@@H](O)[C@@H]2O)[C@H](O)[C@H](O)[C@H]1O	101
Cn1cc(C(=O)N/N=C/c2ccc(Cl)cc2Cl)ccc1=O	95
COc1cccc(N2C(=O)/C(=C\N3CCCCC3)C(=O)NC2=S)c1	92
O=C(CCC1COc2ccccc2O1)Nc1ccccc1Cl (configuration not stated)	110
CN(CC1CC=CCC1)CC(O)c1ccccc1 (configuration not stated)	99
N#CCCN(C(=O)Nc1ccccc1)c1ccccc1	101
Cn1c(SCc2ccccc2Cl)nnc1-c1oc2nc(-c3ccccc3)cc(-c3ccco3)c2c1N	96
Cc1csc2sc(C=C(C#N)C#N)c(C)c12	99
NC(N)=NC(N)=Nc1ccccc1C(F)(F)F	99
O=C(OCc1ccc(Br)cc1)c1ccco1	90
NS(=O)(=O)c1cc(C(=O)O)c(NCc2ccco2)cc1Cl	96&90
NC/C=C/C(=O)O	97
N#Cc1c(-c2cccnc2)cc2c(c1N)c(=O)oc1ccccc12	89
CCS(=O)(=O)NCC(c1cccnc1)N1CCN(c2ccccc2)CC1 (configuration not stated)	92
NS(=O)(=O)c1ccc(N/C=C/C(=O)c2ccccc2)cc1	89
O=C1NCCCC1c1n[nH]c(=S)n1Cc1ccccc1 (configuration not stated)	93
S=c1[nH]nc(CNc2ccc(I)cc2)n1-c1ccccc1	98
